Screening results from PubChem.
HSV replic up: increases HSV replication in cells; HSV replication augmentation in cells, fold increase; maximum fold increase; actives 0.005% (n = 220,000); AID 1956;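 active = peak rise of 1.5-fold or more in the series; inconclusive = self-fluorescent or not available for retest; tested in PC3 cells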;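 also: first round at 10 µM; read as green reporter fluorescence; hits show the peak of a series up to 25 µM; 1 = signal of infected wells without compound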
GALR2 ag: agonists of human galanin receptor 2 (GALR2). activation, %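 (tested at 5 µM)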. actives 0.48% (n = 140,000). GALR2-expressing cells, agonist activation read-out;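 active = above mean plus 3 SD of all compounds, about 5% in these data, not always enough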;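 also: 0% = vehicle buffer wells and 100% = reference agonist at full effect; tested in CHO reporter cells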
INS promoter inh: TRM-6 insulin promoter activity inhibition; actives 0.9% (n = 130,000); inhibition, % at 2 µM; TRM-6 cells (human fetal islet line), insulin promoter-eGFP reporter, imaging; reporter expression induced with tamoxifen; AID 1273;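 active = inhibition above the mean plus 3 SD, with well images judged a real hit on visual review, cut at about 60% in these data, passing the limit was not always enough; inconclusive = inhibition over the cutoff but images rejected on review; inactive = inhibition not above the cutoff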
PKD1 inh: PKD1 (human) kinase inhibition; inhibition, %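 (about 10 µM by stock and volumes)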; Q15139; PKD1 kinase fluorescence polarization assay; actives 0.056% (n = 200,000);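 active = inhibition of 50% or more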;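 also: controls were vehicle for no effect and a reference inhibitor for full effect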
Target sequence (Q15139 whole entry, looked up): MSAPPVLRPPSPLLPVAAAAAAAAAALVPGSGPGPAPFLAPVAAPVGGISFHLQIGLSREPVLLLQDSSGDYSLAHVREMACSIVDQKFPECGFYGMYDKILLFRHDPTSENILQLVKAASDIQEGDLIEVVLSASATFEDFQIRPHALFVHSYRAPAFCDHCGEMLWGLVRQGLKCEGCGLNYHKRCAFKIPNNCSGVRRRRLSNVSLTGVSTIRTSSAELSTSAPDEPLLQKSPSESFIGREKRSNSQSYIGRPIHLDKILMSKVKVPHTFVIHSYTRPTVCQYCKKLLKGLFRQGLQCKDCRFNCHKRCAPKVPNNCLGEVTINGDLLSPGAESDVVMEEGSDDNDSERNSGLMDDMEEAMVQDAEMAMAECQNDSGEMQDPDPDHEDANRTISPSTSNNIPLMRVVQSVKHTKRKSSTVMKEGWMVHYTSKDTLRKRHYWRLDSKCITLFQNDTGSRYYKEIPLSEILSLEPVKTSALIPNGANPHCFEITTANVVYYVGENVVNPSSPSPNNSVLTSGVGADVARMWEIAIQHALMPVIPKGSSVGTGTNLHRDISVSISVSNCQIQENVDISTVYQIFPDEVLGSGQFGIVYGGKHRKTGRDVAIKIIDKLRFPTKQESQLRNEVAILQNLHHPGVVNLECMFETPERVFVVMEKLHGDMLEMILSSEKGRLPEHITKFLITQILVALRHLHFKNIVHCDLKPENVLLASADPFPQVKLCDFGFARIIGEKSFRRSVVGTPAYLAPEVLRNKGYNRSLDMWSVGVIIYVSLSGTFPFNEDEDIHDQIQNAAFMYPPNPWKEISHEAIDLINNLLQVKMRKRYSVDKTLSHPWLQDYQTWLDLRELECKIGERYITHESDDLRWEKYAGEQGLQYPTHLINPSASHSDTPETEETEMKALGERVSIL
RGS16-Gao: modulates binding between human RGS16 and Galphao. O15492+P09471. bead-based flow cytometry RGS16-Galphao binding, fluorescence; actives lie on both sides. binding response (% of control), % at 10 µM. actives 0.38% (n = 220,000). AID 1441;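 active = below 25% or above 175%, edge rows of some plates excepted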;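 also: Galphao activated by GDP with aluminum fluoride before binding; 100% = wells without compound and 0% = beads without RGS; some results beyond the cut were filed as inactive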
INS promoter inh cell count: further read-out of INS promoter inh, marked with its call; normalized cell count, %; measured here: cell count, toxicity; reference of the scale not given here;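 cells exposed to compound for 48 h; stained nuclei by imaging scaled within each plate; lower means fewer cells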
HSV replic up primary fold: also measured in HSV replic up; calls as there; fold increase; compound at 10 µM; measured here: primary screen fold increase 10 uM; tested in PC3 cells;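 GFP signal in the first replicate; 1 = infected wells without compound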
Starred values were filed as active, the others as inactive; i = inactive; ? = inconclusive; / = not tested or not shown.

molecule	PKD1 inh	GALR2 ag	INS promoter inh cell count	INS promoter inh	HSV replic up primary fold	RGS16-Gao	HSV replic up
CC1CCc2nc(NC(=O)C3COc4ccccc4O3)sc2C1 (stereo unspecified)	1	-2.3	/	/	0.79	104	i
Cc1cc(C(=O)OCC(=O)NC2CCS(=O)(=O)C2)c(C)n1-c1ccccc1 (stereo unspecified)	6	-0.8	99	64	0.95	99	i
O=C(O)c1cc2c(o1)CCC/C2=N\O	17	-2.8	74	-30	1.1	102	i
CCOC(=O)NCc1ccc(S(=O)(=O)Nc2ccccc2C)cc1	-30	-0.3	/	/	1	105	i
Brc1ccc(-c2nn[nH]n2)cc1	/	/	/	/	1.1	103	i
Cc1cccc(NC(=O)CSc2nc(N)c(NC(=O)c3cccs3)c(=O)[nH]2)c1	-8	-1.5	113	-25	0.96	98	i
O=C(Nc1ccc(F)cc1)Nc1nnc(-c2ccco2)s1	-2	/	134	-18	0.87	102	i
CC(O)CNc1nc2c(c(=O)n(C)c(=O)n2C)n1C/C=C/c1ccccc1 (stereo unspecified)	11	-0.9	90	50	1.1	100	i
CC(C)(C)NC(=O)Nc1cccc(Cl)c1Cl	3	/	/	/	1	103	i
CCCOc1cc(C)c(S(=O)(=O)N2CCOCC2)cc1C	-3	0.4	96	-47	1	114	i
CCN(C(=O)COC(=O)c1c(C)nn(-c2ccccc2)c1C)C1CCS(=O)(=O)C1 (stereo unspecified)	-1	/	/	/	0.9	101	i
COC(=O)c1ccccc1NC(=O)c1c(Br)cnn1C	-9	-0.8	173	-5	0.87	106	i
O=C1N=c2ccccc2=C1c1sc(=S)n(CC2CCCO2)c1O (stereo unspecified)	-10	0.8	/	/	/	108	?
CCNC(=O)NC(=O)C(C)OC(=O)c1oc2ccccc2c1CSC1CCCCC1 (stereo unspecified)	-11	-0.2	90	22	0.91	105	i
COc1cc(OC)c(NC(=O)CS(=O)(=O)Cc2nc(-c3ccc(C)cc3)oc2C)cc1Cl	6	-2.2	/	/	0.75	101	i
COc1ccc(C2CC(=O)C3=C(C2)Nc2ccccc2NC3c2coc3ccccc3c2=O)cc1OC (stereo unspecified)	-10	-1.3	37	-16	0.89	87	i
O=C(NCCc1ccccn1)c1cc(-c2ccc(Cl)cc2)nc2ccccc12	-2	-0.6	/	/	/	103	/
Cc1nn2cc(-c3ncc(C(F)(F)F)cc3Cl)cnc2c1Br	-4	/	/	/	0.94	123	i
O=C(Cc1n[nH]c(=O)[nH]c1=O)N/N=C/c1c(O)ccc2ccccc12	-4	/	174	-18	1	125	i
COc1ccc(OC)c(NC(=O)c2c(NC(=O)CNCc3ccco3)sc3c2CCC3)c1	-2	-1.0	97	20	0.99	98	i
O=C(N/N=C/c1cccnc1)c1ccc([N+](=O)[O-])cc1Cl	-3	-0.1	/	/	0.88	99	i
C=CCn1c(SCn2nnc3ccccc3c2=O)nnc1-c1ccc(Cl)cc1	1	-1.6	100	5	0.89	102	i
O=c1[nH]c2ccccc2nc1-c1ccccc1	/	/	/	/	0.96	107	i
Clc1ccc(OCCCNCc2ccccc2)c(Br)c1	0	-1.2	50	20	1.2	98	i
Cn1c(=O)c2c(-c3ccccc3F)c3c(nc2n(C)c1=O)-c1ccccc1C3O (stereo unspecified)	4	-1.8	72	60	0.98	33	i
Cc1ccc(NS(=O)(=O)N(C)C)cc1	0	-3.0	62	-410	1	114	i
CCOc1ccc(/C(O)=C2/C(=O)C(=O)N(CCCn3ccnc3)C2c2cccs2)cc1Cl (stereo unspecified)	12	-1.8	86	-73	0.68	103	i
Cn1ccnc1SCC(=O)Nc1ccc(F)c([N+](=O)[O-])c1	1	/	/	/	0.94	100	i
Cc1cc(=O)n2c3ccccc3n(CC(O)CN3CCN(Cc4ccccc4)CC3)c2c1C#N (stereo unspecified)	/	/	/	/	1.1	99	i
COc1ccc(S(=O)(=O)NNC(=O)c2ccc(-n3c(C)ccc3C)cc2)cc1	/	/	/	/	0.84	99	i
COc1ccc(OC)c(NC(=O)CN2CCN(C(=O)c3ccco3)CC2)c1	-2	-0.8	/	/	1	117	i
CCCCC(=NCCc1c(C)[nH]c2ccc(OC)cc12)C1=C(O)CC(c2ccccc2)CC1=O (stereo unspecified)	-6	/	23	-73	0.66	101	i
COc1ccc(C(=O)NC(=S)N2CCN(c3ccc([N+](=O)[O-])cc3)CC2)cc1	-2	-0.4	81	-7	0.97	94	i
CCOC(=O)c1sc(Nc2nc(OC)cc(OC)n2)nc1C	-3	/	/	/	1.1	98	i
Cc1ccc(S(=O)(=O)NC(=O)Nc2nnc(C)s2)cc1	-9	-0.3	135	-46	0.8	106	i
CCCCCCNCC1OCc2ccccc2CO1	0	0.0	87	-27	1	104	i
COC(=O)CN1C(=S)N(C)C(=O)/C1=C/c1cccs1	-7	/	110	29	0.98	99	i
COc1ccc(CCNC(=S)NC(=O)c2ccccc2)cc1C	/	/	/	/	0.98	98	i
O=C(NC(Cc1ccccc1)C(=O)N1CCN(c2ccccn2)CC1)c1ccco1 (stereo unspecified)	2	1.4	133	61	0.6	97	i
Cc1cccc(-n2cnc(C(=O)NNC(=S)Nc3ccccc3)c2)n1	11	/	77	27	0.97	89	i
Nc1nc(COc2ccc3ccccc3c2)cs1	-8	-1.5	58	-257	1.1	103	i
Cc1cc(C)n2c(SCC(=O)Nc3cc(C)on3)nnc2n1	0	-0.4	122	41	0.86	93	i
Cc1ccc2nc(NCc3ccc(F)cc3)c3nncn3c2c1	/	/	/	/	0.97	97	i
CC(C)NS(=O)(=O)c1ccc(OCC(=O)Nc2ccc3c(c2)OCO3)c(Cl)c1	-11	-1.3	57	-24	0.91	98	i
CCN(CC)S(=O)(=O)c1ccc(C)c(NC(=S)NC2CCCCC2)c1	/	/	/	/	1.1	97	i
COc1ccc(C(=O)NCCCN2CCOCC2)cc1S(=O)(=O)N1CCCc2ccccc21	-7	/	87	-54	1	102	i
COc1cc2c(cc1OC)CN(Cc1cc(=O)oc3c(C)c(C)ccc13)CC2	-5	-0.1	/	/	1.1	85	i
CC(C(=O)N1CCCc2ccccc21)N1CCN(c2ccccn2)CC1 (stereo unspecified)	-4	/	/	/	0.82	95	i
O=C(NCc1ccc2c(c1)OCO2)c1cc2c(s1)CSC2	-1	-0.8	49	40	0.96	84	i
Cn1c(=O)n(-c2ccccc2)c(=O)c2c3c(sc21)COC(C)(C)C3	7	-1.4	140	-14	0.9	101	i
Cc1oc(-c2cccc3ccccc23)nc1CN1CCC[C@H]1CO	-3	/	/	/	0.94	71	i
c1ccc(Nc2cccc(Nc3ccccc3)n2)cc1	2	-3.2	123	-110	0.86	90	i
COc1cc(C(=O)NCCc2nc3ccccc3n2C)cc(OC)c1OC	-6	-0.7	142	-47	0.91	105	i
CCC(C)(C)NC(=O)C(c1ccccn1)N(C(=O)c1csnn1)c1ccc(C)c(C)c1 (stereo unspecified)	-5	/	/	/	0.88	102	i
COCCNS(=O)(=O)c1cccc2cccnc12	-7	/	/	/	0.97	104	i
Cc1c(C(=O)N/N=C/C(C)C)[nH]c2ccc([N+](=O)[O-])cc12	2	-0.5	92	56	0.66	106	i
CCC(c1nnnn1C1CCCCC1)N1CCN(C2CCCC2)CC1 (stereo unspecified)	-4	-2.2	/	/	1	107	i
Clc1ccc(-c2c[n+](Cc3cccc(Cl)c3)c3n2CCC3)cc1	-6	-1.0	103	25	1	103	i
O=c1c2ccccc2nc(-c2ccc(Cl)cc2)n1C1CCS(=O)(=O)C1 (stereo unspecified)	-3	-0.7	52	-12	0.83	/	i
Cn1c(C(C#N)/C(=N\S(=O)(=O)c2cccs2)c2ccccc2)nc2ccccc21 (stereo unspecified)	-5	-0.7	145	55	0.76	107	i

Complete entries as entered above. Values in the order: PKD1 inh | GALR2 ag | INS promoter inh cell count | INS promoter inh | HSV replic up primary fold | RGS16-Gao | HSV replic up
`Nc1nc(COc2ccc3ccccc3c2)cs1` as listed: -8 | -1.5 | 58 | -257 | 1.1 | 103 | i
`CCC(C)(C)NC(=O)C(c1ccccn1)N(C(=O)c1csnn1)c1ccc(C)c(C)c1` (stereo unspecified) as listed: -5 | / | / | / | 0.88 | 102 | i
`Cc1ccc2nc(NCc3ccc(F)cc3)c3nncn3c2c1` as listed: / | / | / | / | 0.97 | 97 | i
`O=C(NCc1ccc2c(c1)OCO2)c1cc2c(s1)CSC2` as listed: -1 | -0.8 | 49 | 40 | 0.96 | 84 | i

Later entries:
molecule	PKD1 inh	GALR2 ag	INS promoter inh cell count	INS promoter inh	HSV replic up primary fold	RGS16-Gao	HSV replic up
CCN(CC)S(=O)(=O)C1CCS(=O)(=O)C1 (stereo unspecified)	-1	-0.7	104	12	0.88	55	i
Cc1cccc(C(=O)N2CCC(c3nc4ccccc4s3)CC2)c1	5	/	/	/	0.94	103	i
COc1cccc(NC(=O)CN(C)CC(=O)Nc2ccc(C)cc2Cl)c1	-3	/	164	33	1	104	i
O=Cc1ccc(-c2cccc([N+](=O)[O-])c2)o1	/	/	/	/	0.82	111	i
COc1ccc(S(=O)(=O)N2CCC(C(=O)Nc3nnc(CCN4CCCCC4)s3)CC2)cc1	0	-1.9	/	/	0.74	95	i
CCN1CCCC1CNCC(O)COc1ccc(C(C)(C)C)cc1C (stereo unspecified)	-8	/	84	0	0.97	97	i
CCN(CCO)Cc1csc2ccc(Br)cc12	-1	-1.8	88	9	0.97	100	i
N#CCCn1cc(/C=N/NC(=O)c2ccncc2)c(-c2ccccc2)n1	-5	-5.4	111	29	1.1	98	i
Cc1ccc2[nH]c(=O)c(CN(Cc3nnnn3Cc3ccccc3)C3CCCC3)cc2c1	3	-3.0	100	48	0.88	92	i
O=C(N/N=C/c1cc([N+](=O)[O-])cc([N+](=O)[O-])c1O)/C(=C\c1cccs1)NC(=O)c1ccccc1	5	-1.0	104	7	0.98	103	i
COCCCNC(=O)c1ccc(-c2csc(C)n2)cc1	-10	/	77	-7	0.91	100	i
COC(=O)c1ccc(OCCN2CCCCCC2)cc1	-1	/	59	-24	1.1	99	i
Cc1ccc(S(=O)(=O)N2CCC(n3nnc4cc(C)ccc43)CC2)cc1	3	-2.6	169	38	0.94	89	i
CCOC(=O)C(CO)(NC(C)=O)C(=O)OCC	-12	-2.1	/	/	0.71	97	i
O=C(CCc1nnc(CCCc2ccccc2)o1)NCCc1ccco1	-3	/	201	48	1.1	108	i
O=C(CCCn1c(SCC(=O)NCC2CCCO2)nc2ccccc2c1=O)NCc1ccccc1 (stereo unspecified)	2	-1.9	138	6	1.2	86	i
O=C(NNC(=O)c1ccc(Oc2cc(Cl)cc(Cl)c2)o1)c1ccccc1	/	/	/	/	0.87	101	i
c1cn(CCCNC2=NCCCCC2)cn1	-4	-2.8	/	/	0.86	143	i
NC(=O)CSc1oc(-c2cccs2)nc1S(=O)(=O)c1ccccc1	-5	0.1	127	17	1	121	i
NS(=O)(=O)c1ccc(N/N=C/c2ccc[nH]2)c([N+](=O)[O-])c1	/	/	/	/	0.56	95	i
CC(NC(=O)Nc1ccc(Br)cc1)C(C)(C)C (stereo unspecified)	-9	/	/	/	0.89	99	i
O=C(Cn1cc(C(=O)C(F)(F)F)c2ccccc21)NCc1ccco1	3	/	90	-6	0.9	94	i
Cc1c(C(=O)OC(C)CCN(C)C)oc2ccccc12 (stereo unspecified)	5	-1.5	/	/	0.86	100	i
c1ccc(CSc2nnc(NC3=NCCCCC3)s2)cc1	4	-0.5	67	46	0.92	108	i
Cc1c(Cl)c(C(F)(F)F)nn1CC(=O)N1CCSCC1	-8	-1.6	4.5*	100*	1.1	72	i
COc1ccc(C)cc1S(=O)(=O)N(CC(=O)Nc1cccc([N+](=O)[O-])c1)c1ccc(C)cc1	6	0.0	/	/	0.94	29	i
CCOC(=O)C1=C(Cc2ccc(C)cc2)C(=O)c2ccccc2C1=O	9	-2.7	116	8	/	58	?
O=C(NC(=S)Nc1ccc2c(c1)OCO2)c1ccc(Cl)cc1	-10	-0.9	66	32	0.97	132	i
